Screening results (PubChem)
Mtb H37Rv = M. tuberculosis H37Rv growth inhibitors, H37Rv strain (AID 1626); M. tuberculosis H37Rv growth inhibition; higher % means a stronger effect; one-dose inhibition, % at 10 µM; IC50 in µM for titrated hits; 0.95% of 220,000 active;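 active means confirmed in a dose series; inconclusive means inhibition above 80% but not taken into the dose series; inactive means below 80% or under 30% at every dose of the series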;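 further: bacteria incubated seven days before Alamar blue readout; 0% = bacteria only wells and 100% = bacteria with antibiotic wells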
YopH PTP inh = inhibitors of Yersinia enterocolitica YopH tyrosine phosphatase. fluorescence Ex485/Em525. inhibition, %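 (about 10 µM by stock and volumes)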. 0.16% of 140,000 active;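 active means inhibition of 50% or more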;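 further: controls were vehicle for no effect and minimum signal wells for full effect; inactives centre near -20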
RecA intein inh = blocks M. tuberculosis RecA intein splicing; P9WHJ3; cell-free RecA intein splicing, fluorescence; inhibition, %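 (about 9 µM by stock and volumes)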; 0.75% of 290,000 active; AID 2221; in the data active means inhibition above about 30%; inconclusive means no clear call, values can overlap the other calls;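 further: 0% = vehicle wells and 100% = reference inhibitor control wells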
Target sequence (P9WHJ3 whole entry, looked up): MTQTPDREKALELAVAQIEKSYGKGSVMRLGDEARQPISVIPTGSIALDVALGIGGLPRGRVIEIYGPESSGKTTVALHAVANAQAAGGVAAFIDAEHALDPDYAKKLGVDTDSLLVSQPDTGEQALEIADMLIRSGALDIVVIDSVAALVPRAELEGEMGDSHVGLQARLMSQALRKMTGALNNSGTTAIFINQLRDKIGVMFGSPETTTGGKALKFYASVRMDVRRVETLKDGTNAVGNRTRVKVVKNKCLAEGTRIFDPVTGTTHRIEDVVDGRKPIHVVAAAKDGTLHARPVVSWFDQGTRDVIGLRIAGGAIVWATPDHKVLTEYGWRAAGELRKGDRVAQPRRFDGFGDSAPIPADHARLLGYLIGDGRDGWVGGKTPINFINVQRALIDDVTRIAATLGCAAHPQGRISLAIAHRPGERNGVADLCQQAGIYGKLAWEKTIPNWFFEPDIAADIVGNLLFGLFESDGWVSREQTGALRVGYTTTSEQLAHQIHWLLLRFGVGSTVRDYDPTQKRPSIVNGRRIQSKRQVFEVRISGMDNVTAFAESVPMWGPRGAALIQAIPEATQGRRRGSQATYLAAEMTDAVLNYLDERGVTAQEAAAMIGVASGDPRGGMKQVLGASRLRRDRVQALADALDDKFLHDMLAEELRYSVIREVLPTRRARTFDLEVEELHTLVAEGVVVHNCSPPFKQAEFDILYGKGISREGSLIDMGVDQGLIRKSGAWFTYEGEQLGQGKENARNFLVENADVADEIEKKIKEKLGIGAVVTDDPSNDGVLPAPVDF
Mtb betalactam = beta-lactam sensitization of Mtb H37Rv. M. tuberculosis H37Rv growth with meropenem, percent inhibition; hits of this screen are not shown here. inhibition, % at 25 µM. 0.27% of 330,000 active. AID 434955;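 active means about 74% or more and at least 40 points above the plate without the antibiotic, then above 30% in a dose series; inconclusive means first-round hits that could not be retested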;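 further: growth measured after seven days incubation then overnight dye step; 0% = bacteria only wells and 100% = bacteria with antibiotic; twin plates without the antibiotic show which effects depend on it; some results filed as inactive read as strong as hits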
Arbovirus inh = blocks arbovirus infection | 0.37% of 200,000 active | AID 1251 | arbovirus infection cell-based antiviral screen | inhibition, % at 10 µM;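 active means inhibition from about 30%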;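 further: bluetongue infection of BSR cells; cell survival read as ATP light after 72 h; 0% = infected wells without compound and 100% = uninfected wells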
Arbovirus inh repeat = further read-out of Arbovirus inh, marked with its call; inhibition, %; measured here: 10K subset replicate screen; many hits read low in the repeat;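 first of two repeat runs on a subset; 0% = infected and 100% = uninfected wells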
Starred values were filed as active, the others as inactive; ? = inconclusive; . = no result given.

SMILES | Mtb H37Rv | YopH PTP inh | RecA intein inh | Mtb betalactam | Arbovirus inh | others
O=C(OCc1ccccc1F)c1cnc(Cl)c(Cl)c1 | . | . | 4.8 | 98.0 | .
CC(=O)N1CCC(C(=O)N2CCN(S(=O)(=O)c3ccc(F)cc3)CC2)CC1 | . | . | -0.9 | -4.9 | .
CCCNS(=O)(=O)c1cccc(C(=O)NC2CCCc3ccccc32)c1 (stereo not given) | -10.4% | -32.4 | 1.0 | -1.9 | -2.7
CCOC(=O)CSc1n[nH]c(=O)n1CCc1ccccc1 | . | . | -3.0 | 1.5 | .
O=C(NC1CC1)C1=C[C@H](c2ccccc2)C[C@H](OCc2ccc(CO)cc2)O1 | -3.5% | . | -2.1 | 2.3 | 0.9
O=C(NN=C1CCCCCC1)c1cc2ccccc2cc1O | . | . | -95.1 | -14.2 | .
CN(Cc1nc2ccccc2[nH]1)Cc1nc(CC2CC2)no1 | -8.8% | . | -0.6 | -5.5 | -3.0
COc1cc(C(=S)N2CCOCC2)ccc1OC(=O)c1cccc(C)c1 | . | . | 4.1 | -3.9 | .
Cc1ccc(N=Cc2ccc(N(C)C)cc2)cc1C | -7.2% | . | 0.7 | 1.5 | 2.4
CC1CCN(CCCNC(=O)c2cn(C)c3ccc(S(=O)(=O)N4CCCC4)cc3c2=O)CC1 | 0.3% | -21.3 | 0.2 | 3.2 | 2.2
COc1cc2ncnc(NCc3cc(F)ccc3F)c2cc1OC | . | . | 0.9 | 2.7 | .
Cc1ccc(S(=O)(=O)N2CCOCC2)cc1NC(=O)COc1ccc(-c2nnco2)cc1 | -1.8% | . | 2.6 | -4.8 | -3.8
Clc1ccc(OCc2noc(-c3ccsc3)n2)c(Cl)c1 | 0.5% | . | 7.6 | 7.0 | .
C=CCNC(=O)c1cc2sccc2n1C | -5.5% | . | 2.4 | -1.8 | .
O=C(Cn1nc(-c2ccccc2)c2ccccc2c1=O)Nc1ccc2c(c1)nc1n2CCOC1 | -0.6% | -45.3 | 3.5 | -11.0 | -15.2
CCN(CC)S(=O)(=O)c1ccc(/C=C/C(=O)OCC(=O)c2c(N)n(C)c(=O)n(C)c2=O)cc1 | -0.4% | . | -1.0 | -7.1 | 1.7
O=C(Nc1ccc2c(c1)OCO2)c1cccc2c1C(=O)N(C1CCCCC1)C2 | -9.5% | . | 0.7 | -3.4 | -4.4
CCOC(=O)C1CCN(C(=O)c2cc(S(=O)(=O)N(C)C)ccc2N2CCCC2)CC1 | . | . | 1.9 | 4.0 | .
O=S(=O)(NCCc1ccc(Cl)cc1)c1cccs1 | . | . | 5.0 | 7.0 | .
Cc1ccc[n+](CC(=O)Nc2ccc(C)c(C)c2)c1 | . | . | -0.2 | -1.5 | .

Nothing new here: an excerpt of the list.
SMILES | Mtb H37Rv | YopH PTP inh | RecA intein inh | Mtb betalactam | Arbovirus inh | others
CC(=O)N1CCC(C(=O)N2CCN(S(=O)(=O)c3ccc(F)cc3)CC2)CC1 | . | . | -0.9 | -4.9 | .
CCCNS(=O)(=O)c1cccc(C(=O)NC2CCCc3ccccc32)c1 (stereo not given) | -10.4% | -32.4 | 1.0 | -1.9 | -2.7
CCOC(=O)CSc1n[nH]c(=O)n1CCc1ccccc1 | . | . | -3.0 | 1.5 | .
O=C(NC1CC1)C1=C[C@H](c2ccccc2)C[C@H](OCc2ccc(CO)cc2)O1 | -3.5% | . | -2.1 | 2.3 | 0.9
O=C(NN=C1CCCCCC1)c1cc2ccccc2cc1O | . | . | -95.1 | -14.2 | .
CN(Cc1nc2ccccc2[nH]1)Cc1nc(CC2CC2)no1 | -8.8% | . | -0.6 | -5.5 | -3.0
COc1cc(C(=S)N2CCOCC2)ccc1OC(=O)c1cccc(C)c1 | . | . | 4.1 | -3.9 | .
Cc1ccc(N=Cc2ccc(N(C)C)cc2)cc1C | -7.2% | . | 0.7 | 1.5 | 2.4
CC1CCN(CCCNC(=O)c2cn(C)c3ccc(S(=O)(=O)N4CCCC4)cc3c2=O)CC1 | 0.3% | -21.3 | 0.2 | 3.2 | 2.2
COc1cc2ncnc(NCc3cc(F)ccc3F)c2cc1OC | . | . | 0.9 | 2.7 | .
Cc1ccc(S(=O)(=O)N2CCOCC2)cc1NC(=O)COc1ccc(-c2nnco2)cc1 | -1.8% | . | 2.6 | -4.8 | -3.8
Clc1ccc(OCc2noc(-c3ccsc3)n2)c(Cl)c1 | 0.5% | . | 7.6 | 7.0 | .
C=CCNC(=O)c1cc2sccc2n1C | -5.5% | . | 2.4 | -1.8 | .
O=C(Cn1nc(-c2ccccc2)c2ccccc2c1=O)Nc1ccc2c(c1)nc1n2CCOC1 | -0.6% | -45.3 | 3.5 | -11.0 | -15.2
CCN(CC)S(=O)(=O)c1ccc(/C=C/C(=O)OCC(=O)c2c(N)n(C)c(=O)n(C)c2=O)cc1 | -0.4% | . | -1.0 | -7.1 | 1.7
O=C(Nc1ccc2c(c1)OCO2)c1cccc2c1C(=O)N(C1CCCCC1)C2 | -9.5% | . | 0.7 | -3.4 | -4.4
CCOC(=O)C1CCN(C(=O)c2cc(S(=O)(=O)N(C)C)ccc2N2CCCC2)CC1 | . | . | 1.9 | 4.0 | .
O=S(=O)(NCCc1ccc(Cl)cc1)c1cccs1 | . | . | 5.0 | 7.0 | .
Cc1ccc[n+](CC(=O)Nc2ccc(C)c(C)c2)c1 | . | . | -0.2 | -1.5 | .

New compounds follow:
SMILES | Mtb H37Rv | YopH PTP inh | RecA intein inh | Mtb betalactam | Arbovirus inh | others
Cc1ccc(CSCc2ccc(C(=O)NC3CCCC3)o2)cc1 | 6.7% | . | 3.1 | 13.1 | 7.6
COc1ccccc1/C=N/OCc1ccc(C#N)cc1 | . | . | 2.9 | 1.9 | .
Cc1c(F)cccc1NS(=O)(=O)c1ccc2c(c1)c(C)cc(=O)n2C | . | . | 2.2 | -8.8 | .
CCOC(=O)CSCC(=O)N1CCC(Cc2ccccc2)CC1 | . | . | 0.9 | 99.4 | .
CCCCN1CC2=C(C1=O)C(c1ccc(O)cc1)NC(=O)N2C (stereo not given) | -4.4% | . | 1.0 | -1.8 | -1.0
O=C(O)C1C2CCC(O2)C1C(=O)Nc1ccc(F)c(F)c1 (stereo not given) | . | . | -0.4 | 2.5 | .
O=C(CSc1nnc(-c2ccccc2)o1)OCc1ccccc1 | -2.2% | -46.7 | 0.5 | 44.7 | 1.1
Cc1cccc(C(=O)N2CCN(c3ccc([N+](=O)[O-])c(NCc4ccco4)c3)CC2)c1 | 50.3% | -16.7 | 5.3 | 3.1 | 0.2
COc1ccc2cc(C(=O)C3CCCN(C(=O)c4cccnc4)C3)ccc2c1 (stereo not given) | . | . | 2.1 | 4.7 | .
Cc1nc(-c2ccc(Cl)cc2)sc1C1(C)CC(c2ccc(F)cc2)=NO1 (stereo not given) | . | . | 6.1 | 4.5 | .
CN(Cc1cccc(F)c1)C(=O)c1ccc(NS(=O)(=O)c2ccc3[nH]c(=O)[nH]c3c2)cc1 | . | . | 1.2 | -14.3 | .
Cc1c(C=O)c2ccccn2c1C(=O)c1cccs1 | 3.5% | . | -6.5 | 6.4 | -5.6
CCOC(=O)N1CCC(N2C(=O)c3ccccc3C2Nc2cc(OC)c(OC)c(OC)c2)CC1 (stereo not given) | -2.5% | -18.5 | -1.3 | 0.6 | -0.2 | Arbovirus inh repeat=-2.7
COc1ccc(C(=O)NC2CCCCC2)cc1OC1CCN(C(C)C)CC1 | . | . | -2.4 | 3.2 | .
O=C(O)CN1C(=O)CC(Cc2ccccc2)C1=O (stereo not given) | -2.8% | -8.7 | -3.9 | -9.8 | 12.5
O=C(Cc1cccs1)Nc1nnc(Cc2ccccc2)s1 | 4.3% | -10.8 | 5.2 | -1.9 | -7.6
CCCCN1CC[C@H]2C=CC[C@@H](C(=O)N3CCOCC3)[C@H]2C1=O | -2.6% | . | -1.0 | 2.4 | .
Cc1ccc2[nH]c(=O)c(NC(N)=S)nc2c1 | -6.1% | -23.6 | 4.5 | -13.2 | -0.4
COC(=O)c1ccccc1NC(=O)c1ccc(NS(C)(=O)=O)cc1 | -7.8% | 25.3 | -1.5 | 5.1 | 13.0
Cc1cc(Cl)ccc1NC(=S)Nc1cccnc1 | -2.0% | -5.7 | 5.9 | -2.5 | -0.8
CC(C)CC[n+]1ccn(-c2nc3ccccc3nc2[N-]S(=O)(=O)c2ccccc2)c1 | 0.7% | -13.3 | -34.0 | 3.6 | 11.9
COc1cccc(Oc2coc3cc(OC(=O)N(C)C)ccc3c2=O)c1 | . | . | 0.5 | 6.5 | .
COc1ccc(C2=Nn3c(nnc3-c3ccccc3)SC2)cc1OC | -7.4% | 5.7 | -1.3 | 3.2 | -2.5
O=C(N=C1SC2CS(=O)(=O)CC2N1c1ccccc1)C1CC1 (stereo not given) | . | . | -0.9 | -3.5 | .
Cc1cc(-c2nnc(SCC(=O)Nc3cccc(C)c3C)n2N)n[nH]1 | . | . | -1.4 | 13.0 | .
CN(CC(=O)Nc1ccc(C(N)=O)cc1)CC(=O)Nc1ccccc1Br | -6.0% | . | 5.0 | -2.1 | .
Cc1ccc(C(=O)N2CCN(S(=O)(=O)c3ccc(Br)cc3)CC2)o1 | . | . | 1.0 | 3.8 | .
Cc1c(C)c2ccc(OCC(=O)N3CCC(C(=O)O)(c4ccccc4)CC3)c(C)c2oc1=O | . | . | 1.1 | 2.1 | .
COc1ccc2oc(=N)c(C(=O)Nc3ccccc3Cl)cc2c1 | . | . | -6.4 | 4.2 | .
O=[N+]([O-])c1c(NCCCO)cc(N2CCCCCC2)c2nonc12 | . | . | 7.8 | 3.0 | .
COc1ccc(-n2c(C)cc(=O)[nH]c2=O)cc1 | . | . | -4.0 | 1.7 | .
CC(C)(C)c1cnnn1-c1cccc([N+](=O)[O-])c1 | -4.5% | . | -0.5 | 2.6 | 2.8
Cc1ccc(-n2c(Cn3nc(C(F)F)cc3C(F)F)n[nH]c2=S)cc1 | -0.5% | -6.2 | 1.1 | -2.5 | 6.5
CCS(=O)(=O)N1CCC(NC(=O)C2CCCCC2)CC1 | -1.3% | -42.9 | -3.5 | -1.7 | 12.1
CC(NC(=O)COC(=O)Cc1ccccc1[N+](=O)[O-])c1ccccc1 (stereo not given) | -4.5% | -18.5 | -1.8 | -3.7 | -4.2
CCN1CCN(CC(=O)N/N=C/c2ccc(F)cc2F)CC1 | -2.6% | -24.0 | -0.4 | -0.4 | -4.8
Cc1ccc(C(C(=O)NC2CCCCC2)N2CCOCC2)cc1 (stereo not given) | -4.9% | 3.4 | -0.7 | 5.2 | 1.5 | Arbovirus inh repeat=0.1
Cc1cc(C(=O)CSc2nnc(-c3ccc4c(c3)OCO4)o2)c(C)n1-c1ccc(F)cc1 | 1.7% | -23.8 | -8.8 | 3.6 | 6.4
Cc1ccccc1C(=O)NCC(c1ccco1)N1CCc2ccccc21 (stereo not given) | . | . | 2.5 | -1.1 | .
O=C1CC(C(=O)NCCc2ccccc2)SC(=Nc2ccccc2)N1 (stereo not given) | -3.5% | . | . | -12.6 | .
COC(=O)CNC(=O)C1Cc2ccccc2CN1S(=O)(=O)c1ccc(F)cc1 (stereo not given) | . | . | -2.0 | 0.9 | .
CCC(CO)Nc1ncnc2c1cnn2-c1ccc(OC)cc1 (stereo not given) | 2.3% | -25.9 | 0.3 | -1.0 | -2.2 | Arbovirus inh repeat=-4.0
COc1ccc(-n2c(O)c(/C(C)=N/Nc3ccccc3)c(=O)[nH]c2=O)cc1 | 65.8% | . | -2.2 | 93.0 | .
COc1ccc(NC(=O)/C(C#N)=C/c2ccc3c(c2)n(C)c(=O)n3C)cc1 | -4.8% | -7.5 | -1.5 | -2.6 | 3.5
Cn1c(CNc2cccc(Cl)c2)nnc1SCC#N | -3.3% | . | -1.5 | -5.1 | 2.6
COc1ccc(NC(=O)CSc2c3c(nc4ccccc24)CCCC3)c(OC)c1 | 5.1% | -20.2 | 26.3 | -6.3 | -35.2
CCN(CC(=O)NCc1ccc(Cl)cc1)C(=O)CCOc1ccccc1C | . | . | -0.6 | -0.1 | .
COc1cc([N+](=O)[O-])ccc1NC(=O)Nc1cnccn1 | . | . | -1.4 | -1.6 | .
CC(C)COc1ccc(Cc2c(O)[nH]c(=S)[nH]c2=O)cc1 | . | . | -2.4 | -0.9 | .
CC[n+]1c(/C=C(\C)SC)sc2ccccc21 | -12.2% | -27.5 | 10.8 | 4.0 | 0.0
Cn1nnc2cc(C(=O)NCc3ccco3)ccc21 | -3.3% | -4.1 | -0.7 | -11.3 | -5.7
CN1CCc2c(sc(NC(=O)c3ccco3)c2C(N)=O)C1 | . | . | -0.8 | ? | .

This is a subset, so the mix of outcomes need not match the whole.
